# GIRK2 act = activators of human GIRK2 potassium channels; AID 1259325; calls only for hits at 25 µM; 63,000 compounds, 0.05% hits; P48051; HEK293-GIRK2 thallium flux, Thallos fluorescence;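 active = among the strongest 0.2% of first-round signals and kept after retests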;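 note: first round at about 10 µM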
# Target sequence (P48051 whole entry, looked up): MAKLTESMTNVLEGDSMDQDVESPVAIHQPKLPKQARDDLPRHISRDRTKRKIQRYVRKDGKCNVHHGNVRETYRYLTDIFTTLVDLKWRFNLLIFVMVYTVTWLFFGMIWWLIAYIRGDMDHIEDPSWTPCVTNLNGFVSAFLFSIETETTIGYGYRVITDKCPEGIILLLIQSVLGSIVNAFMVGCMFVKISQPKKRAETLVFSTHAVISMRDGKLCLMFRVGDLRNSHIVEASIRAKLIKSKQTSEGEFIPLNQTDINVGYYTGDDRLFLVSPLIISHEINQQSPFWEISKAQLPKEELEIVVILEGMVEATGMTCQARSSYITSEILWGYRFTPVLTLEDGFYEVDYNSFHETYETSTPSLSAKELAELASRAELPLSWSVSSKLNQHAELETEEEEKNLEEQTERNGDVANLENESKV
# Calls only; i = inactive. An excerpt; count on the stated rates, not on these rows.
SMILES,GIRK2 act
NC(=O)c1nnn(-c2ccc(NC(=O)Cc3ccc(F)cc3)cc2)n1,i
COC(=O)Cn1c(N2CCCCCC2)nc2c1c(=O)[nH]c(=O)n2C,i
COc1ccccc1C(=O)N1CCN(c2oc(/C=C/c3cccs3)nc2C#N)CC1,i
COc1ccc(NC(=O)c2nnn(Cc3nc(-c4ccccc4)oc3C)c2N)c(OC)c1,i
COc1cc(NC(=O)COc2cc(C)nc(N3CCC(C)CC3)n2)cc(OC)c1OC,i
COc1ccc(Cl)cc1C(=O)N1CCC(c2ccccc2)C1 (centres undefined),i
COC(=O)c1sccc1S(=O)(=O)Nc1ccc2c(c1)C(=O)N(C)c1cc(C)ccc1O2,i
COc1ccc(/C=C/C(=O)Nc2ccc(Cl)c(Cl)c2)cc1OC,i
CCOC(=O)c1c(NCc2ccccc2)c2cc(F)ccc2[nH]c1=O,i
O=C(NCCN1CCN(C(=O)c2ccc(=O)[nH]c2)CC1)c1cccs1,i
COc1ccc(S(=O)(=O)Nc2cc3c4c(c2)CC(=O)N4CCC3)cc1,i
COC(=O)N1CCC(CNC(=O)C2(c3cccs3)CCCC2)CC1,i
CCOC(=O)CCC(=O)N1CCC(CSC2=NCCS2)CC1,i
CCCNC(=O)Cn1cnc2c1c(=O)[nH]c(=O)n2C,i
Cc1cc(Nc2ccc(NC(=O)c3ccccc3C(F)(F)F)cc2)nc(N2CCCC2)n1,i
Cc1ccc(S(=O)(=O)c2cn(CC(=O)Nc3cccc(C)c3)c3ccc(Cl)cc3c2=O)cc1,i
O=C(C1CCN(c2nc3ccccc3[nH]c2=O)CC1)N1CCN(c2ccccc2F)CC1,i
O=C(CSc1nc2ccsc2c(=O)n1CCc1cccs1)Nc1nccs1,i
Cc1cnc2n(c1=O)CC(C(=O)NCc1nc(-c3ccccc3)no1)CS2 (centres undefined),i
CCOC(=O)C1CCN(c2nc(OCC(=O)Nc3cccc(Cl)c3)cc(C(C)C)n2)CC1,i

# Next part, starting with the last 2 of the part before.
SMILES,GIRK2 act
Cc1cnc2n(c1=O)CC(C(=O)NCc1nc(-c3ccccc3)no1)CS2 (centres undefined),i
CCOC(=O)C1CCN(c2nc(OCC(=O)Nc3cccc(Cl)c3)cc(C(C)C)n2)CC1,i
COc1cc(/C=C2\SC(=S)N(c3cccc(C(F)(F)F)c3)C2=O)ccc1O,i
CCOc1ccccc1NC(=O)Nc1ccc2c(c1)N(C)C(=O)C(C)(C)CO2,i
CC1CCCCC12NC(=O)N(CC(=O)NCc1ccc(F)cc1)C2=O (centres undefined),i
Cc1ccccc1C(=O)NC1CCN(C(=O)c2cc(-c3ccccc3C)n[nH]2)CC1,i
O=C(c1ccco1)N1CCN(C(=O)C2CCN(c3nc4ccccc4[nH]c3=O)CC2)CC1,i
O=C(CSc1nc(-c2ccccc2)[nH]c1-c1ccccc1)NCc1ccco1,i
Cc1ccc(-c2csc(NC(=O)C3CCN(S(=O)(=O)c4ccc(Cl)cc4)CC3)n2)cc1,i
CN(C)C(CNS(=O)(=O)c1ccc(N2CCCCS2(=O)=O)cc1)c1cccs1 (centres undefined),i
COc1ccc(NC(=O)c2csc(Nc3ncccn3)n2)cc1Cl,i
CCc1ccc(N2C(=O)N(c3cccc([N+](=O)[O-])c3)C3CS(=O)(=O)CC32)cc1 (centres undefined),i
COc1ccc(C2NC(=O)NC(C)=C2C(=O)OC2CCCCC2)c(OC)c1 (centres undefined),i
CCOc1ccccc1C(=O)N1CCOCC1CN(C)C (centres undefined),i
O=C(Cn1cnc2c(-c3ccncc3)nsc2c1=O)NCc1ccc(F)cc1,i
CC12CC(c3ccccc3O1)C(C(=O)Nc1cccc(C(F)(F)F)c1)C(=O)N2 (centres undefined),i
CCC(C(=O)NCCCn1ccnc1-c1ccccc1)c1ccccc1 (centres undefined),i
C/C=C/Oc1ccc(C(=O)/C(=C\c2ccco2)c2nc3ccccc3o2)cc1,i
COc1ccccc1C1(CNC(=O)c2ccc(-n3cccc3)cc2)CCOCC1,i
COc1ccc2nc(-c3ccc(Cl)c(NC(=O)c4ccc(F)cc4F)c3)cn2n1,i
O=C(NCC1(c2ccccc2)CCOCC1)c1ccc(OC(F)(F)F)cc1,i
O=C(Nc1ccc(Cl)cc1)N1CCCC(c2nnc(-c3ccc4c(c3)OCO4)o2)C1 (centres undefined),i
CCN(CC)S(=O)(=O)c1ccc(OC)c(C(=O)Nc2cccnc2)c1,i
Cn1cc(OCc2ccccc2)c(=O)cc1C(=O)N1CCN(C(=O)c2ccco2)CC1,i
Cc1nc(SCC(=O)Nc2nc(-c3ccccc3)ns2)c2c3c(sc2n1)CCC3,i
Cc1cc(NC(=O)C(=O)NCc2cccs2)c2ccccc2n1,i
COc1ccc(CC(=O)N2CC(c3nc(-c4ncccn4)no3)C2)cc1OC,i
Cc1ccc(NC(=O)c2cc(=O)c(OCc3ccc(F)cc3)co2)cc1F,i
COc1ccc(OC)c(C(=O)CN2C(=O)N(c3cccc(Cl)c3)S(=O)(=O)c3ccccc32)c1,i
COc1ccccc1CCN=Cc1c(NCCc2ccccc2OC)nc2ccc(C)cn2c1=O,i
CC(C)c1cnc2c(c1SCc1ccc(F)cc1)c(=O)n(C)c(=O)n2C,i
Cc1cc(NC(=O)c2ccc(=O)[nH]c2)ccc1F,i
CCOc1ccc(C(=O)N2CCN(Cc3nc(C)cs3)CC2)cc1,i
CC(C)(C)c1ccc(NC(=O)CSc2ncn[nH]2)cc1,i
COc1cccc(COc2cn(C)c(C(=O)N3CCN(c4ccccc4OC)CC3)cc2=O)c1,i
CCCC1Oc2ccccc2C(=O)N(CC(=O)c2ccc(F)cc2)C1=O (centres undefined),i
O=[N+]([O-])c1cccc(CSc2ncc(CO)n2Cc2ccc(F)cc2)c1,i
O=C1CCCN1c1ccc(CN2CC(=O)N(Cc3ccccc3)c3ccccc3S2(=O)=O)cc1,i
CCOc1ccc(NC(=O)/C=C/c2ccc(F)cc2)cc1,i
Cc1ccc(-n2ccnc(SCC(=O)Nc3ccc(Br)cc3)c2=O)cc1,i
O=C(c1ccco1)N1CCC(Cn2c(C(F)(F)F)nc3ccccc32)CC1,i
Cc1ccc(C)c(NC(=O)CSc2ncnc3nc(N4CCc5ccccc5C4)sc23)c1,i

# Reformatted as labelled records: part of the list above
> CCOc1ccc(NC(=O)/C=C/c2ccc(F)cc2)cc1
  GIRK2 act = i
> Cc1ccc(-n2ccnc(SCC(=O)Nc3ccc(Br)cc3)c2=O)cc1
  GIRK2 act = i
> O=C(c1ccco1)N1CCC(Cn2c(C(F)(F)F)nc3ccccc32)CC1
  GIRK2 act = i
> Cc1ccc(C)c(NC(=O)CSc2ncnc3nc(N4CCc5ccccc5C4)sc23)c1
  GIRK2 act = i

# Later entries:
SMILES,GIRK2 act
Cc1ccc(/C=C/S(=O)(=O)NCCc2csc3nc(-c4cccs4)nn23)cc1,i
CCOC(=O)CCC(=O)N1C2CCCC1COC2,i
Cc1nc(C(=O)N2CCC(c3nnc(-c4ccco4)o3)CC2)cs1,i
COc1ccc(NC(=O)C2=Cc3cc(Cl)ccc3OC=C2)c(OC)c1,i
COC(=O)c1sccc1S(=O)(=O)N1CC(c2nc(-c3cccc(Cl)c3)no2)C1,i
COc1ccc(NC(=O)c2nn(-c3cccc(F)c3)c(OC)cc2=O)c(OC)c1,i
CCCCn1c(=O)c2c(nc3n2CCCN3C2CCCCC2)n(C)c1=O,i
CC1=Nc2ccc(CCC(=O)O)cc2C1(C)C,i
Cc1cn2c3c(=O)[nH]c(=O)n(C)c3nc2n1CCO,i
COc1ccc(-n2c(C)c(C)n3c4c(=O)n(CC(N)=O)c(=O)n(C)c4nc23)cc1,i
CCSc1ccccc1C(=O)NCC(O)c1ccc2c(c1)CCO2 (centres undefined),i
O=S(=O)(NCCC(O)c1ccccc1)c1ccc(OC(F)(F)F)cc1 (centres undefined),i
O=C(NCCCc1ccccc1)c1cccc2[nH]ccc12,i
CCCCn1c(=O)c2c(nc3n(CC(C)C)c(C)c(C)n23)n(C)c1=O,i
CCCCn1c(=O)c2ccccc2c2ccccc2c1=O,i
Cn1c(=O)c2c(nc(NCc3ccco3)n2CC(O)COc2ccc(Cl)cc2)n(C)c1=O (centres undefined),i
CCOc1ccc(S(=O)(=O)NCCNc2cc(Nc3ccccn3)ncn2)cc1,i
COc1ccc(N/C=C(\C#N)c2nc(-c3ccc(Cl)c(Cl)c3)cs2)cc1OC,i
O=C(NCc1nn(C2CCCC2)c(=O)c2ccccc12)C1(c2ccccc2)CCOCC1,i
O=C(C1CC(=O)N(c2cccc(F)c2)C1)N1CCN(c2ncnc3c2nnn3-c2ccccc2)CC1 (centres undefined),i
CCCn1c(=O)c2c(nc3n2CCCN3c2ccc(C)c(Cl)c2)n(C)c1=O,i
COc1ccc(S(=O)(=O)N=C2C=C(Nc3ccc(C)cc3)C(=O)c3ccccc32)cc1,i
O=C(CSc1cc(-c2nc(C3CC3)no2)ccn1)Nc1cccc(Br)c1,i
CN(C)CCN(C(=O)c1cccs1)c1nc2ccc(S(C)(=O)=O)cc2s1,i
Cc1ccc(S(=O)(=O)N2CCCC(c3nc(-c4cccc(Cl)c4)no3)C2)cc1 (centres undefined),i
O=C(NCC#CCN1CCOCC1)NCCCc1ccccc1,i
CSc1ccccc1NC(=O)Cc1cc(=O)[nH]c(SCc2ccc(F)cc2)n1,i
CCS(=O)(=O)c1ccc2c(c1)N(Cc1nc(-c3ccc(OC(F)(F)F)cc3)no1)C(=O)CO2,i
COc1ccc(S(=O)(=O)N2CCN=C2SCc2c(F)cccc2Cl)cc1,i
Cc1ccc(N2C(=O)C3N=NN(Cc4nc(-c5cccc(C(F)(F)F)c5)no4)C3C2=O)cc1Cl (centres undefined),i
CC1CCN(c2cc(-n3cnc(C(=O)N4CCN(c5ccccc5F)CC4)c3)ncn2)CC1,i
C=C(C)[C@@H]1CC[C@]2(C(=O)O)CC[C@]3(C)[C@H](CCC4[C@@]5(C)CCC(=O)C(C)(C)C5C(O)C[C@]43C)C12 (some centres undefined),i
COC(=O)N1CCc2c(sc(NC(=O)c3cccs3)c2-c2nc3ccccc3s2)C1,i
CN1CCOc2ccc(NC(=O)c3cc(-c4ccc(F)cc4)n[nH]3)cc2C1=O,i
O=C(/C=C/c1ccccc1)NCc1cc(-c2ccncc2)n(C2CCCC2)n1,i
NS(=O)(=O)c1ccc(NC(=O)C2CCN(c3ccc(-c4ccccc4)nn3)CC2)cc1,i
C=CCNC(=O)NCCN1CCN(C(=O)OC)CC1,i
COCCNC(=O)Nc1nnc(-c2cccc(OC)c2)o1,i
CC(C)NC(=O)N1CCC(CSc2nccn2C)CC1,i
CC1CCN(c2nccnc2Oc2ccc(C(=O)N3CCN(C(=O)c4ccco4)CC3)cc2)CC1,i
COc1ccccc1-c1noc(CSc2nc(-c3ccccc3)cc(=O)[nH]2)n1,i
Cc1noc(-c2ccn3c(=O)n(CC(=O)c4ccccc4F)nc3c2)n1,i
CCOCCn1c(=O)c2c(nc3n(-c4ccccc4)c(C)c(C)n23)n(C)c1=O,i
CCC(C(=O)Nc1ccc(C(C)C)cc1)n1cccc(-c2nc(-c3cnccn3)no2)c1=O (centres undefined),i
Cc1nc(NC(=O)C2COCC(=O)N2Cc2ccccc2)sc1C(=O)N(C)C (centres undefined),i
Cc1cc(CNC(=O)Nc2ccccc2C)c(C)o1,i
COc1ccc(SCC2CCN(C(=O)c3c(F)cccc3Cl)CC2)cc1,i
COCc1c(-c2nnc(-c3ccccn3)o2)nnn1-c1cccc(C(F)(F)F)c1,i
COc1ccc(NC(=O)COc2cc(C)nc(-c3ccc(C)cc3)n2)c(OC)c1,i
CC(=O)Nc1ccc(S(=O)(=O)N2CCC(Oc3ccc(C(F)(F)F)cn3)CC2)cc1,i
CC(=O)Nc1ccc(-c2nnc(N(C)c3ccccc3)s2)cc1,i
NC(=O)N/N=C1/CCCCC1c1cc(C(=O)O)ccn1 (centres undefined),i
Cc1cc(C(=O)N2CCC(c3nnc(C4CC4)s3)CC2)no1,i
CCOc1ccc(NC(=O)CCc2nc3sc4c(c3c(=O)[nH]2)CCCC4)cc1,i
Cc1ccc(CCC(=O)N2CCC(S(=O)(=O)Cc3ccco3)CC2)cc1F,i
O=C(c1cnc2ccccc2n1)N1CCC(c2nnc(C3CC3)o2)CC1,i
COc1ccc(CNC(=O)Cn2cnc3c(C(N)=O)nsc3c2=O)cc1,i
Cc1cc(=O)n2c(-c3cccc(NC(=O)Nc4ccc(F)c(F)c4)c3)csc2n1,i
CCCCn1c(-c2ccccc2C)nc2oc3ccccc3c(=O)c2c1=O,i
Cc1ccc(C)c(N2CCN(C(=O)CCCc3nnc4n(C)c(=O)c5sccc5n34)CC2)c1,i
# New compounds follow
SMILES,GIRK2 act
O=c1ccc(-n2cccn2)nn1CCNS(=O)(=O)c1cccnc1,i
CCOC(=O)CCC(=O)Nc1nnc(-c2cc(C)cs2)o1,i
Cc1nnsc1C(=O)N1CCN(C2=NN=C(c3ccccc3)CS2)CC1,i
COc1ccc(N2CC(c3nc(-c4cc(OC)c(OC)c(OC)c4)no3)CC2=O)cc1OC (centres undefined),i
O=C(NCCc1nc(C2CC2)cc(C(F)(F)F)n1)C1CC(=O)N(c2ccc(F)cc2)C1 (centres undefined),i
Cc1ccc(-c2noc(Cn3c(=O)n(-c4cccc(C)c4)c(=O)c4sccc43)n2)cc1,i
O=C(Cn1cccc(S(=O)(=O)N2CCCCCC2)c1=O)NCc1ccc2c(c1)OCO2,i
O=S(=O)(NCC1(c2ccccc2)CCOCC1)c1cccs1,i

# 6 of the compounds above, with bars between the fields:
Compound | GIRK2 act
CCOC(=O)CCC(=O)Nc1nnc(-c2cc(C)cs2)o1 | i
Cc1nnsc1C(=O)N1CCN(C2=NN=C(c3ccccc3)CS2)CC1 | i
COc1ccc(N2CC(c3nc(-c4cc(OC)c(OC)c(OC)c4)no3)CC2=O)cc1OC (centres undefined) | i
O=C(NCCc1nc(C2CC2)cc(C(F)(F)F)n1)C1CC(=O)N(c2ccc(F)cc2)C1 (centres undefined) | i
Cc1ccc(-c2noc(Cn3c(=O)n(-c4cccc(C)c4)c(=O)c4sccc43)n2)cc1 | i
O=C(Cn1cccc(S(=O)(=O)N2CCCCCC2)c1=O)NCc1ccc2c(c1)OCO2 | i

# Screening results (PubChem)
